CDC25B CDK2 inh – human CDC25B-CDK2/CyclinA binding inhibition; hit rate 0.72% among 94,000; z-score (concentration not given with the values); P30305+P24941; HTRF CDC25B-CDK2/CyclinA binding, anti-His/anti-Flag; stronger effect = higher value;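 note: score is relative to mean and SD of negative controls; strong numbers were not always called active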
TAR Tat displ – HIV-1 TAR-Tat binding disruption. HIV-1 TAR RNA, Tat peptide displacement FRET; stronger effect = higher value. z-score (concentration not given with the values). hit rate 0.6% among 100,000. AID 1259389;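 note: score is relative to mean and SD of negative controls; some compounds called inactive have numbers as strong as hits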
Active calls of the source: *; · = not tested or not shown.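 Rule for the calls: active = z-score from 3 up in half or more of its runs; inactive = the rest.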

SMILES	CDC25B CDK2 inh	TAR Tat displ
CCCc1cnc(N2CCN(S(=O)(=O)c3ccc(CNC(=O)c4ccccc4)s3)CC2)nc1	-1.2	·
COc1ccc(Cl)cc1NC(=O)CSc1nccn1C1CCCCC1	·	1.2
CN1CCN(C(=O)c2noc3c2COc2ccccc2-3)CC1	-2.2	0.65
CC(=O)N1CCN(S(=O)(=O)c2cc3c4c(c2)C(C)C(=O)N4CCC3)CC1 (configuration not stated)	·	1.1
Clc1ccc(Cc2nnc(-c3cccs3)o2)cc1	-0.54	0.02
CCOC(=O)C1=C(CC)NC2=C(C(=O)CCC2)C1c1ccc(Cl)cc1 (configuration not stated)	0.2	0.55
O=C(NCC1COc2ccccc2O1)c1ccco1 (configuration not stated)	-0.7	2.4
Cc1nn(S(=O)(=O)c2ccc(Cl)cc2)c(C)c1S(=O)(=O)N1CCOCC1	·	0.88
CCN1C(=O)CCSc2ccccc21	-1.5	2.9
COc1ccc(NS(=O)(=O)c2ccc3c(c2)OCCO3)c(OC)c1	1.4	0.74
NC(=O)CSc1ccc2nnc(-c3cccc(F)c3)n2n1	-0.41	·
COC(=O)c1c(SCC(=O)Nc2cc(OC)ccc2OC)[nH]c2ccccc2c1=O	·	-7.6
C=CCSc1ncc(Cl)c(C(=O)Nc2ccc(S(=O)(=O)N(C)c3ccccc3)cc2)n1	-1.3	0.33
CCn1nc(C)c(CCNC(=O)C2Cc3cc(S(=O)(=O)N4CCCC4)ccc3N2C(C)=O)c1C (configuration not stated)	·	0.98
O=C(CCc1nc2cccnc2n1-c1ccccc1)N1CCN(c2ccccn2)CC1	-1.6	1.1
COc1ccc2c(c1)Cc1sc(NC(=O)c3ccc(OC)c(OC)c3)nc1-2	19*	-0.93
COC(=O)c1ccc(-c2ncc(-c3ccc(N(C)C)cc3)o2)cc1	-2.7	1.5
O=C(CCc1nc(CSc2nc3ccccc3s2)no1)Nc1ccc2c(c1)OCO2	·	1.9
COCCNc1cc(N2CCN(c3ccc(OC)cc3)CC2)c2noc3c2c1C(=O)c1ccccc1-3	-1.3	0.91
Cc1ccc(CNCc2ccncc2)s1	-1.6	-0.15
O=c1c(Cl)c(N2CCOCC2)cnn1-c1ccccc1	-0.13	2.3
O=C(c1sc2ccccc2c1Cl)N(Cc1cccc(F)c1)C1CCS(=O)(=O)C1 (configuration not stated)	-2.2	2.3
CC(C)(C)S(=O)(=O)/C(C#N)=C/NNS(=O)(=O)c1ccc(Cl)c(Cl)c1	-1.9	·
CCN(CC)C(=O)C1CCCN(c2ncnc3onc(C)c23)C1 (configuration not stated)	·	0.7
Cc1nc2nc(C)c(Cc3ccccc3)c(=O)n2[nH]1	-0.62	-0.86
COCc1cc(=O)[nH]c(=S)[nH]1	-1.2	·
CC1CSc2ccc(S(=O)(=O)NCCCN3CCOCC3)cc2NC1=O (configuration not stated)	·	1.6
Cc1noc(NS(=O)(=O)c2ccc(NC(=O)CCCOc3ccc(Cl)cc3Cl)cc2)c1C	-3.3	·
O=C(Cn1c2ccccc2c2cn[nH]c(=O)c21)NCCN1CCOCC1	-0.46	·
O=C1CSC(c2ccc(Cl)c(Cl)c2)N1 (configuration not stated)	-1.9	·
Cc1ccc2c(c1)Cc1c(nc(-c3cccc(Cl)c3)[nH]c1=O)O2	-0.57	1.7
O=C(O)c1cnc(-c2ccccc2)nc1N1CCCC1	-1.6	1.1
CCN1CCN(c2nc(NCCO)nc(N)c2[N+](=O)[O-])CC1	·	0.23
O=C(CC(c1ccc(Cl)cc1)C1CCCCC1=O)c1ccccc1 (configuration not stated)	-0.86	0.63
C/C(=N\O)c1cc(-c2ccccc2)no1	-1.5	·
CCOC(=O)/C(C#N)=C\c1cc(/C=C(/C#N)C(=O)OCC)c(N(C)C)c(C#N)c1N(C)C	-1.1	·
CCCOC(=O)C1=C(C)NC2=C(C(=O)CCC2)C1c1cccc2ccccc12 (configuration not stated)	1.4	0.91
Cc1nn(C(C)C(=O)Nc2ccccc2Cl)c(=O)c2nn(-c3ccccc3)c(C)c12 (configuration not stated)	·	-0.19
CCOC(=O)c1cnc(SC)nc1NC(=O)Nc1cc(F)ccc1F	·	2.9
Nc1nc2c(ncn2CCC(CO)CO)c(=O)[nH]1	·	0.76
CC1CN(C(=O)C2CC2)c2ccccc2NC1=O (configuration not stated)	-0.9	0.1
CCOc1cc(C2c3c(oc4ccc(C)cc4c3=O)C(=O)N2Cc2ccc3c(c2)OCO3)ccc1O (configuration not stated)	-1.3	1.3
O=C(Nc1cccc(Br)c1)N1CCN(c2nc3cc(F)ccc3n3cccc23)CC1	·	0.78
Cc1cc(C)cc(NS(=O)(=O)c2ccc(CN3C(=O)c4cccnc4C3=O)s2)c1	·	-0.89
COC(=O)c1ccc(C2Oc3nc(SC)nnc3-c3ccccc3N2C(C)=O)cc1 (configuration not stated)	-0.33	0.42
CCc1nc2nc(C)c(NS(=O)(=O)c3cc(OC)ccc3OC)c(=O)n2[nH]1	-1.9	-0.62
CC1CCN(C(=O)c2cc3n(n2)CC(C)(C(=O)NC2CCCC2)N(C)C3=O)CC1 (configuration not stated)	·	-0.26
COc1ccc(S(=O)(=O)NCc2c(C)nn(C)c2C)cc1OC	·	1.6
Cc1ccc2cc(-c3noc(C)n3)c(=O)[nH]c2c1	-1.1	0.04
Cc1sc(NC2=NS(=O)(=O)c3ccccc32)nc1-c1ccc(Cl)cc1	-2.7	1.4
COc1ccc(-c2nc3cc(NS(=O)(=O)c4ccccc4)ccc3o2)cc1Br	-3.7	-1.1
O=C1Nc2ccccc2C(=O)C1(N1CCOCC1)N1CCOCC1	-1.6	·
N#C/C(=C/c1ccc(-c2ccccc2[N+](=O)[O-])o1)C(=O)Nc1cccc(C(F)(F)F)c1	-1.2	·
O=C(CCc1nc2sc3c(c2c(=O)[nH]1)CCCCC3)N1CCN(c2cccc(Cl)c2)CC1	·	28*
Cc1ccc2c(c1)Cc1c([nH]c(-c3cccc(O)c3)nc1=S)O2	-1	0.11
CCOC(=O)C1=C(C)NC2=C(C(=O)CC(c3ccccc3)C2)C1c1cccc2ccccc12 (configuration not stated)	-1.4	-1.2
O=C(CSC1=NS(=O)(=O)c2ccccc2N1)Nc1cccc(Br)c1	·	0.88
CN1CC2=C(OC(N)=C(C#N)C2c2ccc(F)cc2)/C(=C/c2ccc(F)cc2)C1 (configuration not stated)	-0.32	·
COc1ccc(-n2nnnc2C2CCN(S(=O)(=O)N(C)C)CC2)cc1	-0.13	1.5
O=C(Cn1ccc2cc(S(=O)(=O)N3CCCC3)ccc21)NCc1ccc2c(c1)OCO2	·	0
(list continues)
SMILES	CDC25B CDK2 inh	TAR Tat displ
C=CCn1c(N)cc(=O)nc1SCC(=O)Nc1ccccc1	-1.5	-0.3
CCCNC(=O)C1CC(c2cnn(CC)c2C)=NO1 (configuration not stated)	0.67	-0.52
CCOC(=O)Cc1nnc(-c2ccc3c(c2)OCO3)o1	-0.88	2.5
CCOC(=O)c1sc(=S)n(-c2ccccc2Cl)c1C	-1.6	-1
Cc1cc2oc3c(c(=O)c2cc1C)C(c1ccc(C(C)(C)C)cc1)N(CCCn1ccnc1)C3=O (configuration not stated)	-1.7	-0.53
Fc1ccc(CN2CCc3nc(N4CCN(c5ccccc5F)CC4)ncc3C2)cc1	·	0.41
O=C1CC(c2ccc(F)c(Br)c2)C2=C(CCCC2=O)N1 (configuration not stated)	-0.07	-0.04
N=C1SC2CS(=O)(=O)CC2N1c1ccccc1 (configuration not stated)	-1.4	·
Cc1ccc2c(c1)C(O)(C1COC(C)(C)CC1=O)C(=O)N2C (configuration not stated)	-0.49	0.67
C(=C\c1nc(-c2ccc(-n3cccc3)cc2)no1)/c1ccccc1	-1.5	-1
CCOc1c(Nc2ccc(Cl)cc2)c(=O)c1=O	·	1.3
O=C(C1CCC1)N1CCCc2cc(S(=O)(=O)N3CCN(c4cccc(Cl)c4)CC3)ccc21	·	0.29
COc1ccc(S(=O)(=O)n2nc(OC(=O)C(C)(C)C)cc2N)cc1	0.85	-0.55
COc1ccc(C2Nc3ccccc3-c3nnc(SC)nc3O2)cc1 (configuration not stated)	-1.3	-0.1
CCc1ccc(-n2c(N)c(C(N)=O)sc2=S)cc1	·	2
Cc1nnc(SCC(=O)Nc2nc3ccccc3s2)[nH]c1=O	-2.4	-0.7
O=C1N=C(N2CCCCC2)S/C1=C/c1ccc(-c2cccc(Br)c2)o1	-2.6	·
Cc1ccc2c(c1)Cc1c(nc(-c3cc(Cl)ccc3O)[nH]c1=O)O2	-2.5	0.59
O=C1CC(CSc2ccccn2)=NN1	-3.1	·
Cc1ccccc1C1CCCN1C(=O)c1cnn2c(C(F)F)cc(C3CC3)nc12 (configuration not stated)	-1.4	-0.2
Cc1nnc(N2C(=O)C(=O)/C(=C(/O)c3ccccc3)C2c2ccccc2)s1 (configuration not stated)	-1.7	-0.21
O=C(Nc1c(C(=O)N2CCN(c3ccc(F)cc3)CC2)oc2ccccc12)c1ccco1	·	2.3
COCCOC(=O)C1=C(C)Nc2nc3ccccc3n2C1c1ccc(Cl)cc1 (configuration not stated)	-1.6	1.4
O=C1NC(c2ccc(Cl)cc2)c2c1n[nH]c2-c1cccs1 (configuration not stated)	0.83	0.66
COc1ccc(OCc2nc(-c3ccccc3Cl)no2)cc1	1.3	0.23
Cc1ccc2nc(C3=C(O)CN(Cc4ccccc4F)C3=N)[nH]c2c1	-1.6	-2
CCN(CC)C(=O)Cn1c(=O)oc2cc(Cl)ccc21	0.37	·
CC(C)n1cnc2nc(COc3cccc(NC(=O)COc4ccccc4F)c3)cc(=O)n21	-1.1	-0.15
Cn1c(=O)c2c(nc(CN3CCCCC3)n2CC(N)=O)n(C)c1=O	0.91	0.31
O=C(NCC1CCCO1)c1cc2c(s1)-c1ccc(Cl)cc1S(=O)(=O)C2 (configuration not stated)	-1.6	-0.46
Cc1ccccc1OCc1nn2c(-c3ccncc3)nnc2s1	-0.24	0.18
COc1cc(Cl)c(C)cc1Nc1cc(C)nc2nnnn12	-0.02	0.37
CSc1cccc(NC(=O)N2CCn3cccc3C2C)c1 (configuration not stated)	·	-5.7
Cc1c(C(=O)N2CCCC2)oc2c1-c1nn(CC(=O)NCCN3CCOCC3)cc1CC2	·	2
O=C(C1CCN(c2nc3ccccc3n3cccc23)CC1)N1CCN(c2ccccn2)CC1	·	-1.8
CCc1ccc(CNc2nc3nc(C)c(Cl)c(C)n3n2)cc1	-0.39	1.5
CC1CC(C)CN(c2ncnc3c2nc2n3CCCCC2)C1 (configuration not stated)	·	1.3
CC1CCc2c(sc3c2c(=O)n(-c2ccccc2)c2n[nH]c(=S)n32)C1 (configuration not stated)	-2.5	·
Cc1nn(-c2nc3ccccc3[nH]2)c2c1C(c1ccccc1Br)CC(=O)N2 (configuration not stated)	·	1.8
CCOc1ccc(OCC)c(NC(=O)Nc2sc3nc4n(c(=O)c3c2C)CCC(C)CC4)c1 (configuration not stated)	-0.72	-0.01
COc1c(C)cnc(Cn2cnc3onc(C)c3c2=O)c1C	·	1.6
COCCCN1CN=C(Nc2nc(C)c3ccc(C)cc3n2)NC1	-1.1	·
Cc1ccc(C(=O)OCc2cc(=O)n3c(-c4ccccc4)csc3n2)cc1	·	-0.59
Cc1ccc2c(N)c(C(=O)O)sc2n1	-0.97	1.3
O=c1c2ccccc2c2ccccc2c(=O)n1Cc1cccnc1	-0.83	·

18 structures from above, ordered by formula weight, falling.
SMILES	CDC25B CDK2 inh	TAR Tat displ
CCn1nc(C)c(CCNC(=O)C2Cc3cc(S(=O)(=O)N4CCCC4)ccc3N2C(C)=O)c1C (configuration not stated)	·	0.98
O=C(CCc1nc2sc3c(c2c(=O)[nH]1)CCCCC3)N1CCN(c2cccc(Cl)c2)CC1	·	28*
O=C(C1CCN(c2nc3ccccc3n3cccc23)CC1)N1CCN(c2ccccn2)CC1	·	-1.8
O=C(CSC1=NS(=O)(=O)c2ccccc2N1)Nc1cccc(Br)c1	·	0.88
CC1CSc2ccc(S(=O)(=O)NCCCN3CCOCC3)cc2NC1=O (configuration not stated)	·	1.6
O=C(NCC1CCCO1)c1cc2c(s1)-c1ccc(Cl)cc1S(=O)(=O)C2 (configuration not stated)	-1.6	-0.46
COc1ccc2c(c1)Cc1sc(NC(=O)c3ccc(OC)c(OC)c3)nc1-2	19*	-0.93
COc1ccc(S(=O)(=O)n2nc(OC(=O)C(C)(C)C)cc2N)cc1	0.85	-0.55
COc1ccc(NS(=O)(=O)c2ccc3c(c2)OCCO3)c(OC)c1	1.4	0.74
Cc1ccc2c(c1)Cc1c(nc(-c3cc(Cl)ccc3O)[nH]c1=O)O2	-2.5	0.59
Cc1ccc2nc(C3=C(O)CN(Cc4ccccc4F)C3=N)[nH]c2c1	-1.6	-2
Cc1nnc(SCC(=O)Nc2nc3ccccc3s2)[nH]c1=O	-2.4	-0.7
Cc1ccc2c(c1)Cc1c(nc(-c3cccc(Cl)c3)[nH]c1=O)O2	-0.57	1.7
CCc1ccc(CNc2nc3nc(C)c(Cl)c(C)n3n2)cc1	-0.39	1.5
NC(=O)CSc1ccc2nnc(-c3cccc(F)c3)n2n1	-0.41	·
O=c1c(Cl)c(N2CCOCC2)cnn1-c1ccccc1	-0.13	2.3
CCc1ccc(-n2c(N)c(C(N)=O)sc2=S)cc1	·	2
O=C(O)c1cnc(-c2ccccc2)nc1N1CCCC1	-1.6	1.1

Next entries.
SMILES	CDC25B CDK2 inh	TAR Tat displ
O=C(CSc1nc(-c2ccccc2)nc2cc(=O)[nH]n12)N1CCc2ccccc2C1	·	1.2
Cc1ccc(S(=O)(=O)c2nnn(-c3cc(C)ccc3C)c2C)cc1	-0.61	1.9
CN(C)CCC(O)c1ccc2c(c1)OCCCCO2 (configuration not stated)	-1.4	·
Cc1ccc(NC2=C(Cl)C(=O)OC2C(C(N)=O)C(N)=O)cc1 (configuration not stated)	-1.1	1.2
Cc1c(C(=O)NCCN2CCN(C)CC2)sc2nc3n(c(=O)c12)CCCC3	·	2.3
Cc1ccc(Nc2nc(NCCN3CCOCC3)nc3c2cnn3C)cc1	·	1
Cn1ncc2c(Nc3ccccc3)nc(N3CCN(Cc4ccccc4)CC3)nc21	·	1.6
